TRPML1 ag: agonists of human TRPML1 channel | Q9GZU1 | TRPML1-expressing cells, Ca2+ dye fluorescence, FDSS; host cell line not named in the record; reference of the full effect not given here | activation, % (test concentration not listed) | 0.12% of 410,000 active; in the data active = activation above about 50%; inconclusive = about 30% to 50%; inactive = below about 30%; also: 0% is about no effect; the text of the record puts the active cut at 80%
Target sequence (Q9GZU1 whole entry, looked up): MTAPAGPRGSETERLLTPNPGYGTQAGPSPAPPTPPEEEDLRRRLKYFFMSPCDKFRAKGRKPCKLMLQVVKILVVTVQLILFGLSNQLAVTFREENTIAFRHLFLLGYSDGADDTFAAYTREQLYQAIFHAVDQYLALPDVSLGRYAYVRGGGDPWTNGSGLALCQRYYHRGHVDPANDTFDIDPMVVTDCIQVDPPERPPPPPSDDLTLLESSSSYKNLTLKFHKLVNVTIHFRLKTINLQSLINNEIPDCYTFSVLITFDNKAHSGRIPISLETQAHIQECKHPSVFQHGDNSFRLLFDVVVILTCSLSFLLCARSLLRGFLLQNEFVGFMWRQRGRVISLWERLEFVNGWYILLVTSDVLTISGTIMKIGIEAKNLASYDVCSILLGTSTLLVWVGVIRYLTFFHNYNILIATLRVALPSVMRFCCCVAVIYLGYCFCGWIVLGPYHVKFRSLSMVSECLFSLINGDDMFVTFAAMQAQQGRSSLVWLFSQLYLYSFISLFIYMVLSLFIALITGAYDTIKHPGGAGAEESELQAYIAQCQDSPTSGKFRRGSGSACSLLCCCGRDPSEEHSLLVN
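In this qHTS format, compounds were pin-transferred onto Ca8-dye-loaded TRPML1-DL cells induced with Tet overnight, and intracellular Ca2+ fluorescence was recorded kinetically for 110 s after a 10 s baseline. A subsequent 4uM final 54-4 (EC80) addition followed by a second 110 s read served as the antagonist phase.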
gsp antag: antagonists of gsp mutant (McCune-Albright syndrome). Potency, µM (highest dose often 76.9 µM), inactives show top-dose activity change, negative = inhibition, actives largely listed as inhibitors. gsp-mutant cells, cAMP HTRF, 30 min; control for the full effect not named in the record. 0.4% of 340,000 active. AID 624288; active = falling curve of any shape with a large fitted effect; inconclusive = falling curve, mostly with a smaller effect; inactive = flat or rising curve; cell line not stated here;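 also: intracellular cAMP measured with PDE inhibitor Ro 20-1724 present during compound exposure; potency is read from the fitted curve at half-maximal effect; % is scaled to controls: 0 for no effect and ±100 for the full control effect; nearly all actives have a fitted effect of over 65% in size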
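Measurement of cellular cAMP by homogeneous time-resolved fluorescence following a 30 min compound exposure at 37C. The PDE inhibitor […] was present throughout; the assay buffer was DPBS with 0.05% BSA and 0.005% Tween 20.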
gsp agonist: activates gsp, the McCune-Albright syndrome mutation; Potency, µM (doses to about 76.9 µM), inactives show top-dose activation (cAMP increase), usual class: activators; 0.13% of 340,000 active; gsp mutant cells, cAMP HTRF, 30 min; control for the full effect not named in the record; active = well fitted activation curve with a large enough effect; inconclusive = small, poorly fitted or top-dose-only effect, or another doubt; inactive = no such curve, though single readings can be large or run the other way; cell line not stated here;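 also: phosphodiesterase inhibitor Ro 20-1724 added with compounds to block cAMP breakdown; potency is read from the fitted curve at half-maximal effect; nearly all actives have a fitted effect of over 60% in size; about a fifth of the inactives were tested at one dose only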
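Cells stably selected in G418 were plated at 2000/well, grown 16-24 hr, then given compounds in DMSO with the PDE inhibitor […] (300 uM solution added) for 30 min at 37C; cAMP was read by HTRF.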
TRPML1 inh: blocks the human TRPML1 channel. Q9GZU1. TRPML1-inducible cells, Ca2+ dye fluorescence, FDSS; hits give low values; inhibition of EC80 agonist-evoked calcium signal. activity change, negative = inhibition, % (concentration not given with the values). 0.02% of 390,000 active. AID 624415; in the data active means activity change below about -50%; inconclusive means about -30% to -50%; inactive means above about -30%;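 also: stimulus is agonist 54-4 at its EC80 concentration; % is scaled to controls: 0 for no effect and ±100 for the full control effect; compound concentration not given in the record; the text of the record puts the active cut at -80%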
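Calcium fluorescence in TRPML1-DL cells induced overnight with Tet: a 110 s read after compound pin addition, then a 110 s antagonist read after challenge with 54-4 at 4 uM final (EC80).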
ClpP mod: qHTS Assay for Activators of ClpP | ATP-dependent Clp protease proteolytic subunit (Bacillus subtilis (strain 168)), P80244 | purified B. subtilis ClpP, FRET peptide cleavage, 20 min | 1.9% of 340,000 active | Potency, µM (highest dose often 57.5 µM), for the others: at the top dose activity change, negative = active; active = well fitted falling curve with a large enough effect; inconclusive = small, poorly fitted or top-dose-only effect; inactive = no such curve, though single readings can be large or run the other way; also: potency is read from the fitted curve at half-maximal effect; the source files actives as falling curves though it sought activators and does not explain the sign; nearly all actives have a fitted effect of over 65% in size; many hits overshoot -100%
Target sequence (P80244 whole entry, looked up): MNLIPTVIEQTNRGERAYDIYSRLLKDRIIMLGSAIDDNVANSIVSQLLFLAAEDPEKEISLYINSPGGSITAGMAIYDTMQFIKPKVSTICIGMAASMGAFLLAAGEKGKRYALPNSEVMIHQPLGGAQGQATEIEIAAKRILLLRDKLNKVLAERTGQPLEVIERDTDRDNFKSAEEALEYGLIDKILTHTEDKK
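FRET quenching reversal measured ClpP activation: 10 microg/mL B. subtilis ClpP at pH 8 with the FRET-FV decapeptide, read at 430 nm after 320 nm excitation. The 20-min minus 0-min signal was scaled between DMSO/no-enzyme wells and ADEP (5.8 microM final).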
Menin-MLL FL inh: displaces fluorescein MLL peptide from human menin | Fluorescence polarization, fluorescein-MLL peptide displacement from menin | FP activity change, % at 61.4 µM | 290,000 tested, under 10 active | AID 1766; inconclusive = falling polarisation curve, or a change in total fluorescence; inactive = total fluorescence flat and polarisation flat or rising; no compound was filed as active; the % refers to the polarisation; negative = inhibition;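 also: % of control where 0% means no effect; inhibitors lower the polarisation; unlabelled MLL peptide was the positive control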
Numbers without * were called inactive; ? = inconclusive; nt = not tested or not shown; & = joins results of further samples; [ ] = remark or other dose.

SMILES	TRPML1 ag	gsp antag	gsp agonist	TRPML1 inh	ClpP mod	Menin-MLL FL inh
CCN(c1ccccc1)S(=O)(=O)c1ccc(NC(=O)c2cc(=O)c3ccc(C)c(C)c3o2)cc1	-0.4	nt	nt	-10	-1.6%	nt
CCc1ccc(CNC(=O)C2CCCN(c3nnc(C)c4c(C)n(-c5ccccc5)nc34)C2)cc1 (stereo not drawn)	0.8&3.0	-2%	10%	-1&21	4.0%&4.4%	nt
COc1ccc(Cl)cc1NC(=O)CN(C)Cc1cccs1	2.3	-29%	16%	23	nt	-1.6
O=S(=O)(c1ccccc1)N1CCN(C(=S)NCc2ccccc2)CC1	0.1	-16%	-5%[15.4 µM]	1	nt	-4.9
Cc1ccc(S(=O)(=O)N2CCC(NC(=O)c3ccccc3)CC2)cc1	-0.3	10%	0%[15.4 µM]	7	nt	3.0
C/C(=N\NC(=O)c1ccccc1C)c1cccnc1	0.6	10%	7%	-14	-0.5%	-0.7
Cc1ccc(S(=O)(=O)N(C)Cc2ccc(C(=O)N/N=C/c3ccc(OC(F)F)cc3)cc2)cc1	0.6	14%	-45%[inhibitor]	5	0.4%	2.1
COc1cccc(Cn2cnc3c(sc4nc(C)cc(C)c43)c2=O)c1	0.5	18%	0%[15.4 µM]	26	nt	4.3
CCOC(=O)C1CCN(S(=O)(=O)c2cc(-c3cc(C)no3)ccc2OC)CC1	0.4	nt	nt	-3	0.0%	nt
Oc1c(C=C2N=c3ccccc3=N2)sc(=S)n1-c1ccc2ccccc2c1	0.1	3%	-23%	22	-2.6%	3.9
O=C(N[C@H]1CCC(=O)N([C@H](CSc2ccccc2)Cc2ccccc2)CC1)OCc1ccccc1	1.8&0.3	-19%	-27%	10	-5.5%&-5.2%	2.7
N#C/C(=N\Nc1cccc(F)c1)C(=N)N1CCCCCC1	0.8	-11%	-35%[inhibitor]	3	nt	-1.6
COc1ccc(CCNc2nc3ccccc3c3nc(-c4cccc(C)c4)nn23)cc1OC	2.7	nt	nt	53	-11%	nt
O=C(/C=C/c1ccccc1[N+](=O)[O-])NCc1cccnc1	-0.2	3%	17%	-19	-1.1%	0.0
COc1ccc(C(=O)N2CCN(S(=O)(=O)c3ccc(C)cc3)CC2)cc1S(=O)(=O)N1CCOCC1	0.4	-7%	7%	35	1.5%	1.1
CSc1nsc(SC)c1NC(=O)OC1CCCCC1	-0.5	7%	12%	17	-1.1%	2.5
Cc1ccc(S(=O)(=O)N2CCC(C(=O)Nc3nnc(-c4ccco4)s3)CC2)cc1	1.2	0%	5%	19	?	1.2
CCc1nnc(NS(=O)(=O)c2ccc(NC(=O)/C=C/c3ccc(OC)cc3OC)cc2)s1	0.4	-19%	0%[15.4 µM]	-12	-1.3%	8.0
Cc1cnc(C(=O)OC(C)C(=O)c2c(C)[nH]c3ccccc23)cn1 (stereo not drawn)	0.5	8%	6%	-6	0.8%	nt
Cc1cc(NC(=O)N2CCC(CN3CCCCCC3)CC2)ccc1Br	1.0	nt	nt	10	0.0%	nt
O=[N+]([O-])c1ncn(Cc2ccccc2Cl)n1	0.2	12%	-43%[inhibitor]	11	-21%	-0.6
COc1ccc(C2C3=C(CC(C)(C)CC3=O)Oc3ncn(CCO)c(=N)c32)cc1OC (stereo not drawn)	2.7	7%	-77%[inhibitor]	1	0.2%	2.8
COc1cccc(CNCCO)c1OCc1ccccc1	-0.3	-10%	-3%[15.4 µM]	-9	nt	0.2
CC1=C(C(=O)OCc2ccccc2)C(c2cccc([N+](=O)[O-])c2)NC(=O)N1CCCCCC(=O)O (stereo not drawn)	-0.4	-19%	nt	3	-2.4%	2.7&-2.1
CCc1ccc(NC(=O)C(C)Sc2nc(-c3ccco3)c(C#N)c(=O)[nH]2)cc1 (stereo not drawn)	1.5	-1%	?	13	nt	18
(more compounds)
SMILES	TRPML1 ag	gsp antag	gsp agonist	TRPML1 inh	ClpP mod	Menin-MLL FL inh
COC(=O)c1ccc2c(=O)[nH]c(COC(=O)c3c(-c4ccccc4Cl)noc3C)nc2c1	4.6	2%	-1%	9	?	nt
Cc1cccc(N=C2NC(=O)/C(=C/c3cccnc3)S2)c1	2.1	-11%	-31%[inhibitor]	4	1.4%	?
C=CCNC(=O)C1CCN(S(=O)(=O)CC)CC1	-0.2	1%	-35%[inhibitor]	-13	0.2%	1.4
CCOc1ccc(NC(=O)COc2ccc3c(c2)CCC3)cc1OC	0.5	-11%	?	0	0.4%	nt
CCOc1ccccc1C1Nc2ccccc2-c2nnc(SCc3ccccc3)nc2O1 (stereo not drawn)	-0.5	nt	nt	-9	-3.4%	nt
CCOC(=O)c1c(-c2ccccc2)csc1NC(=O)c1ccc(N2C(=O)CCC2=O)cc1	0.7	13%	0%	-4	?	3.7
COc1cc(C(=O)Nc2cccc(NC(=O)c3ccccc3)c2)cc(OC)c1OC	1.0	-27%	?	-7	-0.2%	0.7
CCOC(=O)c1c(C)c(-c2ccccc2)n(CC(=O)NCCCN(CC)CC)c1C	-0.2	33%[activator]	25%	13	0.5%	-2.1
CCn1cc2nc(SCC(=O)Nc3cc(OC)cc(OC)c3)n(Cc3ccc(Cl)cc3)c(=O)c2n1	1.1	nt	nt	19	-1.6%	nt
CC(C)c1ccc(/C=C2\NC(=O)NC2=O)cc1	1.5	2%	-70%[inhibitor]	-6	nt	-2.0
CCOc1ccc(CCN2C(=S)N([C@@H](Cc3ccc(O)cc3)CN3CCC[C@@H]3CN3C(=S)NC[C@@H]3CC(C)C)C[C@@H]2Cc2ccccc2)cc1	0.2	nt	nt	-5	0.5%	nt
O=C(NC1CCCCC1)Oc1ccccc1	-0.7	17%	-11%[15.4 µM]	10	0.1%	-0.7
COc1ccc(C(=O)Nc2ccccc2C(=O)Nc2cccc(C)n2)cc1	3.1	-8%	35%	-10	-5.7%	-5.3
NC(=O)CCCSc1nc2ccccc2[nH]1	-0.6	1%	-12%	-12	nt	-1.5
O=S(=O)(c1ccc2ccccc2c1)n1nc(-c2ccco2)nc1NCc1cccc(Cl)c1	2.9	nt	nt	34	-2.8%	nt
Cc1nnc(SCCCN2C(=O)c3ccccc3C2=O)o1	-0.7	5%	19%	-6	-3.1%	1.7
Cc1ccc(NC(=O)c2cccc(OCc3c(C)noc3C)c2)c(C)c1	4.9	-23%	0%	8	-7.3%	2.3
Cc1cc(C(=O)N/N=C/c2cccc3ccccc23)c(C)o1	0.3	-9%	5%	28	nt	4.4
CCOC(=O)CSc1nc2sc3c(c2c(=O)n1CC)CCCC3	3.9	nt	nt	-1	-3.2%	nt
COc1ccc(-c2csc(NC(=S)NC(=O)/C=C/c3ccc(C(C)C)cc3)n2)cc1OC	0.5	0%	6%	-8	-0.9%	nt
CC1CN(CCc2ccccc2)C(C)C/C1=N/O (stereo not drawn)	1.1	-10%	-39%[inhibitor]	-20	1.6%	nt
Cc1cc(OCC(=O)NCCCN2CCOCC2)c2c(C)cc(=O)oc2c1	0.9	-1%	?	53	3.7%	3.2
CCOc1ccccc1NC(=O)NCc1ccccc1F	16	3%	-18%	19	-0.3%	3.0
CCOc1ccc(-c2nonc2NC(=O)c2ccco2)cc1OCC	-0.9&0.0	-17%	21%	-13&-6	-3.7%&-9.9%	nt
COc1ccc(CCNC(=O)CN(c2ccc(C)cc2)S(=O)(=O)c2ccc(OC)cc2)cc1	1.3	nt	nt	28	3.6%	nt

2 compounds from above, reduced to Menin-MLL FL inh and gsp antag:
| molecule | Menin-MLL FL inh | gsp antag |
| --- | --- | --- |
| CCOC(=O)c1c(-c2ccccc2)csc1NC(=O)c1ccc(N2C(=O)CCC2=O)cc1 | 3.7 | 13% |
| Cc1cccc(N=C2NC(=O)/C(=C/c3cccnc3)S2)c1 | ? | -11% |

(next part)
SMILES	TRPML1 ag	gsp antag	gsp agonist	TRPML1 inh	ClpP mod	Menin-MLL FL inh
Cn1c(=O)oc2cc(S(=O)(=O)N3CCC4(CC3)OCCO4)ccc21	3.1	9%	-1%	-2	0.1%	19
COC(=O)C1=CO[C@@H](OC2OC(CO)C(O)C(O)C2O)[C@@H]2C(CO)=CC[C@H]12 (stereo partly drawn)	0.2	1%	nt	3	-1.7%	1.8
Cc1n[nH]c(=O)nc1NCCN(C)C	-0.6	13%	21%	7	1.5%	-1.3
COc1cccc(/C=N/NC(=O)C(=O)NCc2ccco2)c1O	1.7	-1%	-31%[inhibitor]	-8	-0.4%	6.8
COc1cc(C(CC(=O)NCc2ccccc2Cl)N2Cc3ccccc3C2=O)cc(OC)c1OC (stereo not drawn)	3.0	nt	nt	-7	-2.4%	nt
Cc1ccnc(SCC(=O)Nc2cccc(S(=O)(=O)N3CCOCC3)c2)n1	-0.5	7%	?	-10	nt	nt
COc1cccc(NC(=O)Cn2c(=O)n(CCC(=O)NC3CCN(Cc4ccccc4)CC3)c(=O)c3ccccc32)c1	nt	2%	?	nt	-1.3%	1.7
Cn1c(C(=O)c2ccccc2[N+](=O)[O-])nc2ccccc21	-0.3	1%	-8%	9	-2.4%	-5.7
Cn1ccnc1C(=O)Cc1ccc([N+](=O)[O-])cc1	0.6	6%	-5%[15.4 µM]	28	nt	nt
CC(=O)c1cc2c(cc1N/C(=N/S(=O)(=O)c1ccccc1)c1ccc(Cl)cc1)OCO2	0.1&3.0	-1%	26%	?	18%&12%	3.4
O=C(CO/N=C1\CCCc2nonc21)Nc1ccccc1Cl	-0.4	13%	4%[15.4 µM]	12	-0.2%	3.9
Cc1cc(=O)oc2ccc(OCC(=O)N(Cc3ccc(F)cc3)Cc3ccco3)cc12	3.0	?	-2%	9	-17%	1.6
Cc1c(CC(=O)O)c(=O)oc2cc(OCc3ccc(F)cc3Cl)ccc12	0.6	?	?	2	3.2%	-18
CCOc1ccc(OCC)c(NC(=O)C2CCN(c3cnccn3)CC2)c1	-0.9&-0.4	4%	-6%	-4&-15	-5.5%&-17%	nt
Cc1ccccc1N/C(SCc1ccc(Cl)cc1)=C(/C#N)C(=O)NCc1ccco1	3.7	0%	-3%	79	-3.4%	3.1
COc1cccc(NC(=O)CN(C)C(C)C(=O)Nc2cc([N+](=O)[O-])ccc2Cl)c1 (stereo not drawn)	0.9	-11%	-1%[15.4 µM]	12	32µM*	-5.5
COc1ccc(N(CC(=O)NCc2cccnc2)S(=O)(=O)c2ccccc2[N+](=O)[O-])c(OC)c1	2.1	nt	2%[15.4 µM]	9	nt	-0.4
C=CCn1c(C)cc(C(=O)COC(=O)c2cncc(Br)c2)c1C	0.2	-5%	-85%[inhibitor]	5	1.1%	nt
CN1c2ccccc2C(=O)/C(=C\Nc2ccc(F)cc2F)S1(=O)=O	-0.4	-8%	3%[15.4 µM]	4	nt	?
CC(Oc1ccc(Cl)cc1Cl)C(=O)Nc1cccc(O)c1 (stereo not drawn)	0.2	7%	9%	-7	nt	-2.6
CCN1CCCC1CNC(=O)C(=O)Nc1ccc(OC)cc1 (stereo not drawn)	-0.3	0%	-52%[inhibitor]	-3	-8.4%	-2.0
